# Source: PubChem BioAssay (National Center for Advancing Translational Sciences (NCATS))
# EPAC2 ant val – validation of human EPAC2 antagonists; Q8WZA2; EPAC2 Rap1B BODIPY-GDP exchange, fluorescence; Potency, µM (series often up to 112 µM), for the others: at the top dose activity, negative = inhibition, most hits filed as inhibitors; 1.7% of 16,000 active; active = well fitted inhibition curve with a large enough effect; inconclusive = small, poorly fitted or top-dose-only effect; inactive = no such curve, though single readings can be large or run the other way;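 also: 100% = activation by cAMP agonist control; nearly all actives have a fitted effect of over 40% in size; the record reuses the description of the EPAC1 agonist screen; inactives centre near -10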
# Target sequence (Q8WZA2 whole entry, looked up): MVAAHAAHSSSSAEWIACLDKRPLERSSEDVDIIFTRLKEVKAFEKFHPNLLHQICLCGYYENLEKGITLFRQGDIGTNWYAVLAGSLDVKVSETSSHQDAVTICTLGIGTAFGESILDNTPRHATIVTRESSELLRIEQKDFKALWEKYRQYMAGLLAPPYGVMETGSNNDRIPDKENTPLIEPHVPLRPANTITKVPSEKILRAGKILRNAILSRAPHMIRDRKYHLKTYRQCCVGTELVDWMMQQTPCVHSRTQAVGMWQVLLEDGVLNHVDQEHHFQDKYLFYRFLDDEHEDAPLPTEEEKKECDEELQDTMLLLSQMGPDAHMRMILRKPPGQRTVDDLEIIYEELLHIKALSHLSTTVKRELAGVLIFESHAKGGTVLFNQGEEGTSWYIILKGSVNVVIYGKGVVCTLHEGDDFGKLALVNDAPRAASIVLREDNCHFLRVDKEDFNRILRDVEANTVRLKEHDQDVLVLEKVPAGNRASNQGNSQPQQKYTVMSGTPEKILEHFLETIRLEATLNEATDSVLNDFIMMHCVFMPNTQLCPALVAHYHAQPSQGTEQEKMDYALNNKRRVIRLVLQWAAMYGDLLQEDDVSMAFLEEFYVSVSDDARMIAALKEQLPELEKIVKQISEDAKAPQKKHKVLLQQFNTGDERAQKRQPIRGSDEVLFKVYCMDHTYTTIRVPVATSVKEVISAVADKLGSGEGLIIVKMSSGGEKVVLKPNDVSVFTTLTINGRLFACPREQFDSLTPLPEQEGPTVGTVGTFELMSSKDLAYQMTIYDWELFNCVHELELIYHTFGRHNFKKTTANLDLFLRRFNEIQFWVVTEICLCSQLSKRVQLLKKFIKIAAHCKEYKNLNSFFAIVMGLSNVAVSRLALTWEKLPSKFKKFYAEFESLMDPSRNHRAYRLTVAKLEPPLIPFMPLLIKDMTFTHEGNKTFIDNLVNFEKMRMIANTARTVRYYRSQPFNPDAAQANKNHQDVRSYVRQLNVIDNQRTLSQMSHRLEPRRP
#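 Normalized against a 6.5 mM cAMP agonist control, compounds were tested on 100 nM EPAC2 exchanging Rap1B-bound BODIPY-GDP (250 nM) for 50 uM GDP. Fluorescence drop (ex 480, em 540 nm) was tracked at room temperature over 30 min at 5-min intervals.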
# Starred values were filed as active, the others as inactive; ? = inconclusive; & = joins results of further samples; ! = repeats disagree; [ ] = remark or other dose. Potency is read from the fitted curve at half-maximal effect. An excerpt; count on the stated rates, not on these rows.
SMILES,EPAC2 ant val
Cc1nc2cnc(Oc3ccccc3)nc2n(CCC#N)c1=O,-22%
COC(=O)N1CCC2(CCN(C(=O)Nc3ccccc3)CC2)CC1,?
CO[C@]1(C2=NCCN2)COc2ccccc2O1,?
O=C(NCCc1nnc2n1CCN(Cc1ccc(F)cc1)CC2)c1ccco1,12%
O=C(O)/C=C/c1ccc2c(c1)S(=O)(=O)N(C1CCCC1)[C@H]2CC(=O)O,-7%
NCCC(O)C(=O)NC1C[C@@H](N)[C@H](O[C@@H]2OC(CN)C(O)C(O)C2O)C(O)[C@H]1O[C@H]1OC(CO)C(O)C(N)C1O (stereo not given in full),-15%
CC#CCOC(=O)c1c(C)nc2sc3c(c2c1N)CC[C@@H](O)C3,?
CC1=CC(=C(c2ccc(N)cc2)c2ccc(N)cc2)C=CC1=N,?
COc1ccc(C(=O)N2CCC3(CCN(Cc4ccccc4)CC3)CC2)cc1,-16%
CN(Cc1ccco1)c1cc(-c2cccc(C#N)c2)ncn1,-11%
O=c1c(-c2ccc(F)cc2)nc2cnc(Nc3ccccc3)nc2n1C1CC1,-13%
COC(=O)c1c(OCc2ccc(F)cc2)cc(=O)n2c1CCN(Cc1ccc3cccnc3c1)CC2,-21%
CCNc1ncc2nc(-c3ccccc3)c(=O)n(Cc3cccs3)c2n1,-1%
Cc1c(C(=O)NCC2(N3CCOCC3)CCCC2)cnn1-c1nccc(-c2ccccc2F)n1,3%
CCOC(=O)N1CCC(=C2c3ccc(Cl)cc3CCc3cccnc32)CC1,35µM*!

# Copied from the list:
# EPAC2 ant val result of CCOC(=O)N1CCC(=C2c3ccc(Cl)cc3CCc3cccnc32)CC1 = 35µM*!
# EPAC2 ant val result of O=C(O)/C=C/c1ccc2c(c1)S(=O)(=O)N(C1CCCC1)[C@H]2CC(=O)O = -7%
# EPAC2 ant val result of COc1ccc(C(=O)N2CCC3(CCN(Cc4ccccc4)CC3)CC2)cc1 = -16%
# EPAC2 ant val result of Cc1nc2cnc(Oc3ccccc3)nc2n(CCC#N)c1=O = -22%
# EPAC2 ant val result of CN(Cc1ccco1)c1cc(-c2cccc(C#N)c2)ncn1 = -11%

# Going on with the list:
SMILES,EPAC2 ant val
Cc1ccc2[nH]c3c(c2c1)CN(C(=O)CC1(c2ccccc2)CC(=O)N(Cc2cccnc2)C1=O)CC3 (stereo not given),?
O=C(C[n+]1ccccc1Br)c1ccc(-c2ccccc2)cc1,-14%
OC[C@H]1O[C@@H](n2cnc3c(=S)nc[nH]c32)[C@H](O)[C@@H]1O,-17%
Cn1c(=O)c(-c2cc(F)cc(F)c2)nc2cnc(Oc3ccccc3)nc21,-15%
O=C(O)CCC(=O)C(=O)O (tested in a mixture with another compound),-4%
Cc1cnc(CNc2ncncc2-c2ccccc2CN(C)C)cn1,-35%
COc1ncc2nc(-c3ccc(F)cc3)c(=O)n(C3CC3)c2n1,-11%
O=C1CCN(Cc2ccccc2)CCN1[C@H](CSc1ccccc1)Cc1ccccc1,-19%
COCCn1c(=O)c(-c2ccc(OC)cc2)nc2cnc(N3CCN(C)CC3)nc21,66%[activator]
COC(=O)C[C@H]1c2cc(C(F)(F)F)ccc2S(=O)(=O)N1C(C)(C)C,?
COC(=O)CCCC[C@@H]1SC[C@@H]2NC(=O)N[C@@H]21,-11%
O=C(c1ccc(OCCCc2cnc[nH]2)cc1)C1CC1,-19%
Cc1ccc(CN2CCC(C3(c4ccccn4)NC(=O)N(CC4CCCO4)C3=O)CC2)cc1C (stereo not given),-12%
Cc1cc(-c2ccnc(-n3ncc(C(=O)N(C)Cc4nccs4)c3C)n2)c(C)s1,?
C=C[C@](C)(O)CCC1C(=C)CCC2[C@@](C)(CO)CCC[C@@]12C (stereo not given in full),?
O=c1[nH]c2cc(Cl)c(Cl)cc2[nH]c1=O,-9%&-10%&-16%
CCCCCCCCCCCCCCCCCCCCCC(=O)Nc1ccn([C@@H]2O[C@H](CO)[C@@H](O)[C@@H]2O)c(=O)n1,30%
CS(=O)(=O)Nc1cccc(-c2nc(Nc3ccc(F)cc3)c3ccccc3n2)c1,0%
COc1ccc(SC[C@H](Cc2ccccc2)N2CC[C@@H](C)CCC2=O)cc1,40µM*
COc1cccc(Cn2c(=O)c(-c3cccc(Cl)c3)nc3cncnc32)c1,-20%
Cc1cc2ccccc2c[n+]1CC(=O)c1ccc(F)cc1,22%
Cc1cc2nc(N3CCC(NC(C)c4nc(-c5ccccn5)no4)CC3)nc(C)c2cc1C (stereo not given),?
O=C(Oc1ccccc1)N1CCC2(CCCN(c3ccccc3)C2)CC1,?
CN(C)c1ncc2nc(-c3ccc(F)cc3)c(=O)n(-c3ccccc3)c2n1,-11%
CN(C)C(=O)c1ccc(-c2nccc(-n3ccnc3)n2)cc1,-12%
COC(=O)CC1C(C)(C)C(=O)C2CC3C4=CC(=O)OC(c5ccoc5)[C@]4(C)CCC3[C@@]1(C)C2=O (stereo not given in full),-15%
CCCCCCCCc1ccc(-c2ccc(C(=O)O)cc2)cc1,-19%
O=S(=O)(N(Cc1ccccc1)[C@@H](CO)Cc1ccccc1)N(Cc1ccccc1)[C@@H](CO)Cc1ccccc1,-2%
CC(C)C[C@@H](CSc1ccccc1)N1CCN(CC(C)C)CCC1=O,-8%
COc1cccc(-c2nc(NCCc3c[nH]c4ccc(OC)cc34)c3ccccc3n2)c1,-18%

# 3 compounds from above, sorted by length of the SMILES, low to high:
SMILES,EPAC2 ant val
COc1cccc(Cn2c(=O)c(-c3cccc(Cl)c3)nc3cncnc32)c1,-20%
COc1ccc(SC[C@H](Cc2ccccc2)N2CC[C@@H](C)CCC2=O)cc1,40µM*
CCCCCCCCCCCCCCCCCCCCCC(=O)Nc1ccn([C@@H]2O[C@H](CO)[C@@H](O)[C@@H]2O)c(=O)n1,30%

# Later entries:
SMILES,EPAC2 ant val
O=C(CCCN1CCC(O)(c2ccc(Br)cc2)CC1)c1ccc(F)cc1,-22%[56.6 µM]
CCN1CCN(C(=O)c2sc3ncnc(NCC4CCCO4)c3c2C)CC1 (stereo not given),16%
COc1ccc2ccc(=O)oc2c1CC=C(C)C,?
CC(C)Cc1nc2cc(NS(=O)(=O)N(C)C)cc(C(=O)N3CCc4sccc4C3)c2n1C,-18%
COC(=O)C1OC(=O)C2OC23[C@]2(C)C(OC(C)=O)CC4C(C)(C)C(=O)CC[C@]4(C)C2CC[C@@]13C (stereo not given in full),-5%
O=C(c1ccccc1-n1cccn1)N1CCOc2ccc(CN3CCOCC3)cc2C1,-4%
Cc1cnc(-n2ncc(C(=O)NCC3COCCO3)c2C2CC2)nc1-c1cccs1 (stereo not given),?
Cc1cnc(CNc2cc(-c3c(C)noc3C)ncn2)cn1,-9%
Cc1c(C(=O)NC2CCCC2)sc2ncnc(NCCN(C)C)c12,6%
CC(O)(P(=O)(O)O)P(=O)(O)O,14%
O=c1c(-c2ccc(O)cc2)coc2cc(O)cc(O)c12,-18%&-21%&-27%
CN1CCN(c2ncc3nc(-c4ccc(Cl)cc4)c(=O)n(-c4ccccc4)c3n2)CC1,-24%
COc1ncc2nc(-c3cc(F)cc(F)c3)c(=O)n(C3CC3)c2n1,-8%
O=C1CC2(CCCC2)CC(=O)N1CCNC[C@H]1COc2ccccc2O1,-21%
CN(C)CC(C)(O)c1ccc2c(c1)CN(Cc1cn(C)c3ccccc13)CCO2 (stereo not given),2%
C1CCC(N=C(NC23CC4CC(CC(C4)C2)C3)N2CCOCC2)CC1,-21%
COCc1c(C(C)C)nc(C(C)C)c(/C=C/[C@@H](O)C[C@@H](O)CC(=O)O)c1-c1ccc(F)cc1,?
CC(=O)N[C@@H](Cc1c[nH]c2ccccc12)C(=O)O,-5%
CC(=O)OC1CC[C@@]2(C)C3CC(=O)[C@]4(C)C(C(C)=O)=CCC4C3CC[C@H]2C1 (stereo not given in full),-9%
CC1=CC(=O)C2=C(C)C[C@@H]3OC(=O)[C@@H](C)[C@H]3C=C12,25%
OC[C@H]1NC[C@@H](O)[C@@H]1O,-7%
COCCn1c(=O)c(-c2cccs2)nc2cnc(OC)nc21,-4%
COC(=O)C1C(O)CC[C@H]2CN3CCc4c([nH]c5ccccc45)C3C[C@H]12 (stereo not given in full),-3%
CN(C)c1ccc(-c2cncnc2NCc2cccs2)cc1,?
CC(O)(COc1ccccc1)c1ccc2c(c1)CN(Cc1cccc3cccnc13)CCO2 (stereo not given),-5%
O=C(c1cccc(F)c1)N1CCC[C@@]2(CCN(c3ccncc3)C2)C1,?
Cc1cc(C(=O)Nc2cccc(-c3nc(CNC(=O)c4ccc[n+]([O-])c4)c(C)o3)c2)c(C)o1,3%
Cn1c(=O)c(-c2ccc(F)cc2)nc2cnc(N3CCOCC3)nc21,12%
Cc1c(C(=O)N2CC3CCC2C3)sc2ncnc(NCCc3c[nH]c4ccccc34)c12 (stereo not given),-13%
CC1=C(C(=O)O)N2C(=O)C(NC(=O)C(N)c3ccccc3)C2SC1 (stereo not given),-5%
CCN(CC)CCOC[C@H]1O[C@@H](O)[C@H](OCCN(CC)CC)[C@@H](O)[C@@H]1O,12%
COc1ccc(C(=O)N2CCC[C@@]3(CCN(C)C3)C2)cc1,-10%
Cc1ccc2nccc(/C=C/c3ccc(N(C)C)cc3)c2c1,66%[activator]
Cc1c(C(=O)N(C)C(C)C)sc2ncnc(NCCCN3CCOCC3)c12,4%
O=C1CC(CC(=O)N2CC3CCCC2C3)(c2cccc(F)c2)C(=O)N1Cc1cccnc1 (stereo not given),-4%
O=C(NCC1CCC2(CCN(Cc3cccc4cccnc34)CC2)O1)c1ccco1 (stereo not given),8%
CN1Cc2sccc2C(c2ccc(O)c(O)c2)C1 (stereo not given),-8%
NCCCNCCCCNC(=O)C(O)NC(=O)CCCCCCN=C(N)N (stereo not given),23%
O=P(O)(O)OC[C@H]1O[C@](O)(COP(=O)(O)O)[C@@H](O)[C@@H]1O,9%
COCC1CCCN(Cc2ccc3c(c2)CN(C(=O)c2cccnc2OC)CCO3)C1 (stereo not given),-4%
COc1ccccc1C1CN(CC(=O)NCC2OCCc3ccccc32)Cc2ccccc2O1 (stereo not given),-21%
O=c1c(CCc2ccccc2)nc2cnc(Oc3ccccc3)nc2n1C[C@H]1CCCO1,?
CC(C)CN1CCCC2(CCN(C(=O)c3ccco3)CC2)C1,-28%
CS(=O)(=O)NCc1ccccc1Br,-23%
C[C@@]12C(=O)OC(=O)[C@@]1(C)C1CCC2O1,12%

# Fetched one by one from the entries so far:
SMILES,EPAC2 ant val
O=c1c(CCc2ccccc2)nc2cnc(Oc3ccccc3)nc2n1C[C@H]1CCCO1,?
O=C1CC(CC(=O)N2CC3CCCC2C3)(c2cccc(F)c2)C(=O)N1Cc1cccnc1 (stereo not given),-4%

# The listing picks up with the 3 entries that preceded the break.
SMILES,EPAC2 ant val
CC(C)CN1CCCC2(CCN(C(=O)c3ccco3)CC2)C1,-28%
CS(=O)(=O)NCc1ccccc1Br,-23%
C[C@@]12C(=O)OC(=O)[C@@]1(C)C1CCC2O1,12%
CN(C)c1ncc2nc(-c3ccc(F)cc3)c(=O)n(Cc3ccc(F)cc3)c2n1,-5%
CC(C)C[C@H](NC(=O)[C@@H](O)[C@H](N)Cc1ccccc1)C(=O)O,-8%
CO[C@H]1C[C@@H]2CC[C@@H](C)[C@@](O)(O2)C(=O)C(=O)N2CCCC[C@H]2C(=O)O[C@H]([C@H](C)C[C@@H]2CC[C@@H](OC(=O)C(C)(CO)CO)[C@H](OC)C2)CC(=O)[C@H](C)/C=C(\C)[C@@H](O)[C@@H](OC)C(=O)[C@H](C)C[C@H](C)/C=C/C=C/C=C/1C,5%
CC(C)CCCC(C)C1CCC2C3CC=C4CC(=O)CC[C@@]4(C)C3CC[C@@]12C (stereo not given in full),-12%
CNCCCCc1cnc(C)c2[nH]c3ccccc3c12,5%
Cn1nnnc1SCC1=C(C(=O)O)N2C(=O)[C@@H](NC(=O)[C@H](OC=O)c3ccccc3)[C@H]2SC1,32%[activator]
Cn1cccc1C(=O)N1CCC2(CCN(C(=O)Nc3cccc(F)c3)CC2)CC1,-20%
CCOC(=O)COc1ccc2c(=O)cc(-c3ccccc3)oc2c1,12%&17%
O=c1c(O)c(-c2ccccc2)oc2ccc3occc3c12,7.1µM*
O=C(C[n+]1csc2ccccc21)c1cccc([N+](=O)[O-])c1,-9%
CC(C)(C)NC(=O)[C@H]1CC[C@H]2[C@@H]3CC[C@H]4NC(=O)C=C[C@]4(C)[C@H]3CC[C@]12C,-1%[56.6 µM]
CCc1ccc2c(-c3cccc(Cl)c3)nc(=O)n(CC)c2n1,-27%&-18%
CN1CCC[C@@H]1Cc1c[nH]c2ccc(CCS(=O)(=O)c3ccccc3)cc12,12%
CC(C)C[C@@H](CO)N1CCN(C)CCC1=O,?
COc1cc(=O)n2c(c1C(=O)N(C)Cc1nonc1C)CCN(Cc1ccsc1)CC2,-4%
Nc1nc(NC2CC2)c2ncn([C@@H]3C=C[C@@H](CO)C3)c2n1,2%
COc1ccc(CN2CCCC(c3nc(-c4ccncc4)ncc3-c3ccccc3C)C2)c(OC)c1 (stereo not given),?
COc1ncnc(NS(=O)(=O)c2ccc(N)cc2)c1OC,-25%
CC(Oc1ccccc1)C(=O)N[C@@H]1C(=O)N2C(C(=O)OCC3CCCCC3)C(C)(C)S[C@H]12 (stereo not given in full),?
